Screening data deposited in PubChem BioAssay by National Center for Advancing Translational Sciences (NCATS).
Cruzain noTriton: qHTS Assay for Promiscuous and Specific Inhibitors of Cruzain (without detergent); purified cruzain, Z-FR-AMC fluorescence, no detergent; Potency, µM, for the others: max response, negative = inhibition, hits mostly inhibitors; 200,000 tested, 2.3% active; AID 1476, 2009;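 note: plate controls were enzyme without inhibitor for no effect and buffer without enzyme for full effect; nearly all actives have a fitted effect of over 40% in size; top concentration of the series not given in the record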
Target sequence (P25779 123-467 limits assumed): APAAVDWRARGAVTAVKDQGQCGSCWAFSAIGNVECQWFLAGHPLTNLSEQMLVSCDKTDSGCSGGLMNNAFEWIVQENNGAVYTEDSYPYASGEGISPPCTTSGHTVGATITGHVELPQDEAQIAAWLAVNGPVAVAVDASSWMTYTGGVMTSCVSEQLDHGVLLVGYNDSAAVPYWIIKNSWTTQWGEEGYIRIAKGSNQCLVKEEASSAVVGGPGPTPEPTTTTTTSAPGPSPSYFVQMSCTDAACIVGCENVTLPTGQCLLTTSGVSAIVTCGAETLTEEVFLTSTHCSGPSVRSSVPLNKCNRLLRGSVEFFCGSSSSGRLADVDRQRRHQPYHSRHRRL
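Purified cruzain at 1.5 nM, pre-incubated 15 min with compound at room temperature in 100 mM sodium acetate pH 5.5, 5 mM DTT, 0.00005% Triton X-100. Reaction started with 2 uM Z-FR-AMC; AMC fluorescence increase over 60 s gives rate.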
Lassa entry inh: qHTS for Inhibitors of binding or entry into cells for Lassa Virus. Lassa virus pseudotype entry inhibition, cell reporter; control for the full effect not named in the record. Potency, µM (doses to about 37.9 µM), without a hit: top-dose activity change, negative = inhibition, actives largely listed as inhibitors. 300,000 tested, 1.2% active; active means well fitted inhibition curve with a large enough effect; inconclusive means small, poorly fitted or top-dose-only effect, or effect the other way; inactive means flat fitted curve, though single readings scatter; tested in HEK293 cells; note: % is set by controls: 0 for no effect and ±100 for the full control effect; nearly all actives have a fitted effect of over 50% in size; luciferase read-out
Marburg entry inh: qHTS for inhibitors of binding or entry into cells for Marburg Virus. Marburg virus pseudotyped entry inhibition, cell reporter; control for the full effect not named in the record; about a third of the inactives were read at about 46 µM. Potency, µM (doses to about 37.8 µM), inactives show at the highest dose activity change, negative = inhibition, actives largely listed as inhibitors. 300,000 tested, 1.8% active; active = well fitted inhibition curve with a large enough effect; inconclusive = small, poorly fitted or top-dose-only effect, or effect the other way; inactive = flat fitted curve, though single readings scatter; tested in HEK293 cells; about a fifth of its hits are not listed in these tables; note: % is set by controls: 0 for no effect and ±100 for the full control effect; luciferase read-out
SARS PLpro yeast: qHTS of Yeast-based Assay for SARS-CoV PLP. S. cerevisiae expressing SARS-CoV PLpro, growth rescue; control for the full effect not named in the record. Potency, µM (top dose mostly 32.9 µM), for the others: at the highest dose activity, positive = growth rescue. 330,000 tested, 0.19% active; active means well fitted rising curve with a large enough effect; inconclusive means small, poorly fitted or top-dose-only effect; inactive means no such curve, though single readings can be large or run the other way; note: 0% is about no effect; nearly all actives have a fitted effect of over 55% in size; growth read by luminescence after 48 h
RE007 growth inh: qHTS Assay for Inhibitors of the HIV-1 protein Vpr. S. pombe RE007 Vpr strain, BacTiter-Glo ATP luminescence, 24 h; control for the full effect not named in the record. Potency, µM (top dose mostly 92.2 µM), inactives show at the top dose activity change, negative = less growth. 360,000 tested, 0.21% active; active = well fitted falling curve with a large enough effect; inconclusive = small, poorly fitted or top-dose-only effect; inactive = no such curve, though single readings can be large or run the other way;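 note: % is set by controls: 0 for no effect and ±100 for the full control effect; nearly all actives have a fitted effect of over 50% in size; the assay follows cell death caused by Vpr and the record does not say whether a fall means rescue or toxicity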
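Fission yeast strain RE007, carrying one chromosomally integrated HIV-1 vpr copy, was seeded at OD 0.01 in PMG+AL medium with 23 nL pinned compound. After 24 h at 30 °C and 99% humidity, viability was read by BacTiter-Glo luminescence.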
NS1 inh: qHTS Assay for Inhibitors of Influenza NS1 Protein Function | S. cerevisiae slowed by influenza A NS1, growth recovery by OD600 | Potency, µM (titrated, usually from 46.1 µM), inactives show at the highest dose activity, positive = more growth | 270,000 tested, 0.4% active | AID 2326, 2010; active means well fitted rising curve with a large enough effect; inconclusive means small, poorly fitted or top-dose-only effect; inactive means no such curve, though single readings can be large or run the other way; note: nearly all actives have a fitted effect of over 50% in size
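Read-out: OD600 growth recovery of NS1-expressing budding yeast. Cells grown overnight at 30C in -URA glucose medium, washed, resuspended and diluted 1:100 in 2% galactose assay medium, pH 6.0. Same strain lacking NS1 served as positive control.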
2A StopGo: High Throughput Screening for Foot and Mouth Disease Virus Antivirals; Potency, µM (top dose mostly 57.9 µM), for inactives: at the highest dose signal change, negative = less light; human cells with a luciferase reporter of 2A StopGo recoding; control for the full effect not named in the record; 410,000 tested, 1.2% active; AID 1159524, 2015; active = well fitted falling curve with a large enough effect; inconclusive = small, poorly fitted or top-dose-only effect; inactive = no such curve, though single readings can be large or run the other way; tested in HEK293T cells; note: % is set by controls: 0 for no effect and ±100 for the full control effect; nearly all actives have a fitted effect of over 45% in size; luciferase light after 4 h
Cruzain inh Det: qHTS Assay for Promiscuous and Specific Inhibitors of Cruzain (with detergent) | Cruzipain (Trypanosoma cruzi), P25779 | purified cruzain, Z-FR-AMC fluorescence, 0.01% Triton | Potency, µM, for inactives: max response, negative = inhibition, usual class: inhibitors | 200,000 tested, 0.43% active | AID 1478, 2009;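 note: plate controls were neutral wells for no effect and buffer without enzyme for full effect; nearly all actives have a fitted effect of over 40% in size; top concentration of the series not given in the record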
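Cysteine protease activity tested under reducing, mildly acidic conditions (100 mM sodium acetate pH 5.5, 5 mM DTT) plus 0.01% Triton X-100. Cruzain 1.5 nM; substrate Z-FR-AMC 2 uM; 15 min compound preincubation at room temperature.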
Starred values were filed as active, the others as inactive; ? = inconclusive; · = no result given; & = joins results of further samples; [ ] = another dose, or the depositor's remark. Unless noted, calls come from the whole dose curve; as a rule, active = well fitted curve in the direction sought with a large enough effect; inconclusive = small, poorly fitted or top-dose-only effect, or another doubt; inactive = no such curve, though single readings can be large; an effect the other way counts as inactive or inconclusive. Potency is the fitted concentration of half-maximal effect.

Value order: Cruzain noTriton	Lassa entry inh	Marburg entry inh	SARS PLpro yeast	RE007 growth inh	NS1 inh	2A StopGo	Cruzain inh Det
1. CC1=CC(C)(C)Nc2ccc(OC(=O)C(Cc3ccccc3)N3C(=O)c4ccccc4C3=O)cc21 (stereo not given)
→ ?	5µM*	14%[46.1 µM]	1%	12%	?	0%	-8.0%
2. NC(=O)CN1C(=O)C2C3c4ccccc4C(c4ccccc43)C2C1=O (stereo not given)
→ 3%	-2%	-5%	0%	-1%	2%	-16%	4.9%
3. O=C(NCc1ccco1)/C(=C/c1cccc(C(F)(F)F)c1)c1nc2ccccc2[nH]1
→ -3%	?	?	-12%	-9%	2%	0%	-10%
4. Cc1c2cnn(CC(=O)NC(C)C)c(=O)c2c(C)n1Cc1ccccc1Cl
→ -1%	12%[46.1 µM]	?	·	·	·	27%	0.4%
5. O=C(Oc1c(CN2CCOCC2)cc(Cl)c2cccnc12)c1ccccc1Br
→ ·	·	·	0%	-12%	-6%	-20%	·
6. Cc1ccc(CNc2ccc3cc(S(=O)(=O)N4CCCCC4)ccc3n2)cc1
→ -2%	?	·	·	·	·	-4%	-3.9%
7. CC1CCCCN1Cc1c(O)ccc2c(=O)c(-c3ccc(Cl)cc3)coc12 (stereo not given)
→ -20%	2%&-13%[46.1 µM]	?	-2%	1%	1%	19%&17%	-2.2%
8. CCn1c(SCC(=O)c2ccc(C)cc2)nnc1-c1ccoc1C
→ -18%	-5%	5%[46.1 µM]	-11%	12%	-13%	15%	0.6%
9. O=C1CC(c2ccccc2)CC(O)=C1C=Nc1ccccc1O (stereo not given)
→ ·	·	·	-2%	1%	-7%	31%	·
10. N#Cc1cccc(N=Cc2c(O)ccc3ccccc23)c1
→ 2%	-12%	-21%	2%	-26%	-3%	-24%	-1.2%
11. Cc1ccc(C(=O)OCC(=O)c2ccccc2)cc1
→ ·	?	-27%	-3%	3%	2%	-20%	·
12. CCn1cnc2sc(C(=O)Oc3ccc(Br)cc3)c(C)c2c1=O
→ ·	4%	23%[46.1 µM]	-3%	5%	·	0%	·
13. Cc1ccc(C)c(NS(=O)(=O)c2ccc(-c3coc(C)n3)cc2)c1
→ ·	·	·	-28%	17%	-14%	0%	·
14. O=C(O)C1CCCCC1C(=O)Nc1ccc(S(=O)(=O)N2CCCCCC2)cc1 (stereo not given)
→ ·	24%	-3%[46.1 µM]	2%	2%	7%	-14%	·
15. CC1CCCC(NC(=O)COC(=O)/C=C/c2ccc3c(c2)OCO3)C1C (stereo not given)
→ -4%	?	22%	14%	6%	-3%	47%[activator]	-1.8%
16. O=C(NCc1ccccc1Cl)C1CCC(=O)N(CC2CCCCC2)C1 (stereo not given)
→ ·	-2%	-9%	-5%	-17%	3%	-1%	·
17. O=C(N/N=C1\CCCc2ccccc21)c1ccccc1[N+](=O)[O-]
→ -22%	?	15%	9%	-14%	4%	77%[activator]	-4.0%
18. CCC1CCC/C1=N\NC(=O)c1ccccc1Cl (stereo not given)
→ ·	-3%	?	·	-4%	·	-2%	·
19. CCSc1n[nH]c(=S)s1
→ ·	12%[46.1 µM]	?	1%	10%	·	-4%	·
20. COc1ccc(N2CCN(S(=O)(=O)CCNC(=O)c3ccc4c(c3)OCO4)CC2)cc1
→ ·	-7%	13%	-1%	8%	·	-22%	·
21. CC(C)C(C(=O)Nc1ccc(S(N)(=O)=O)cc1)N1C(=O)c2ccccc2C1=O (stereo not given)
→ ·	?	10%[46.1 µM]	1%	4%	·	1%	·
22. O=C(N/N=C/c1ccc(O)c(O)c1)C1c2ccccc2Oc2ccccc21
→ 5%	-20%	25%	3%	-15%	?	-23%	-8.9%
23. Cc1ccc(C(=O)Nc2nnc(COc3ccccc3)s2)cc1
→ ·	13%[46.1 µM]	1%[46.1 µM]	-1%	10%	1%	-11%	·
24. CCOC(=O)C1=C(C)Nc2ccccc2S1
→ ·	-1%[46.1 µM]	20%[46.1 µM]	-1%	-29%	0%	9%	·
25. Cc1cccc(C(=O)NC(=S)NNC(=O)Cc2ccccc2)c1
→ -6%	17%	1%	·	-13%	-50%	-26%	4.7%
26. COc1ccc(-c2oc3ncnc(NCCCO)c3c2-c2ccc(OC)cc2)cc1
→ ·	?	?	-4%	6%	-31%	-28%	·
27. CN(C(=O)c1cc2nc(-c3ccc4c(c3)OCO4)cc(C(F)(F)F)n2n1)c1ccc(OC(F)(F)F)cc1
→ 1%	28%[46.1 µM]	23%[46.1 µM]	·	·	·	-24%	1.2%
28. CCCn1c(CCC(=O)O)ccc1-c1ccc(OC)cc1
→ 17%	?	23%	·	3%	-4%	·	-4.2%
29. CC(C)=NNC1=NC(C)(C)Cc2ccccc21
→ ·	3%	0%[14.2 µM]	0%	3%	-5%	13%	·
30. Cc1ccc(-n2c(=O)[nH]c3cc(C(=O)NC4CCN(Cc5ccccc5)CC4)ccc3c2=O)cc1
→ 12%	11%	10%	5%	0%	-1%	16%	0.4%
31. CCOc1ccc(CCNC(=O)c2cnc3c(-c4ccc(F)cc4)c(C)nn3c2C)cc1OCC
→ -1%	1%[46.1 µM]	·	·	·	·	-17%	-1.5%
32. O=S(=O)(NCC(c1ccc2c(c1)OCO2)N1CCOCC1)c1ccc(Br)cc1 (stereo not given)
→ ·	0%	?	-3%	-10%	·	27%	·
33. Cc1ccc(S(=O)(=O)N(C)CC(=O)Nc2ccncc2)cc1
→ -19%	14%	15%[46.1 µM]	-1%	?	4%	?	-0.6%
34. CCOC(=O)c1ccc(NC(=O)CN2C(=O)c3cccnc3Sc3ccccc32)cc1
→ -14%	-19%[46.1 µM]	·	·	·	·	10%	-9.2%
35. COC(=O)c1cc(S(=O)(=O)Nc2ccc(C)cn2)c[nH]1
→ ·	·	·	-8%	5%	0%	20%	·
36. COc1cc(/C=C2\SC(c3ccc(C)cc3)=NC2=O)cc(OC)c1O
→ 0%	3%	-18%	-6%	-11%	25%	17%	-13%
37. Cc1ccc(C)c(N2C(=O)c3ccc(C(=O)OCC(=O)c4c(N)n(C)c(=O)n(C)c4=O)cc3C2=O)c1
→ ?	2%	-1%	-2%	-10%	-7%	?	-5.2%
38. O=C(Cn1c(=O)oc2ccccc21)NCCc1ccccc1
→ ·	-1%	31%	1%	2%	4%	10%	·
39. COc1cccc(CN2CCCC(C(=O)N3CCCCC3)C2)c1OC (stereo not given)
→ 14%	-2%	-6%	6%	-5%[3.69 µM]	11%	51%[activator]	7.9%
40. COc1ccc(NC(=S)N(CCC(C)C)C2CCN(C(C)C)CC2)cc1
→ ·	·	·	-2%	-7%	-4%	-12%	·
41. CC(=O)CCc1ccc(OCCCCN2CCC(Cc3ccccc3)CC2)cc1
→ ·	0%	-18%[46.1 µM]	0%	2%	-8%	-28%	·
42. COc1cccc(OCc2nnc(SCC(=O)N3c4ccccc4Sc4ccc(Cl)cc43)o2)c1
→ ?	-8%	-19%	2%	18%	9%	0%	-4.2%
43. COc1ccc(NC(=O)c2cccc(N3C(=O)C4C5C=CC(C5)C4C3=O)c2)cc1Cl (stereo not given)
→ ·	-27%	12%[46.1 µM]	2%	-2%	13%	?	·
44. CCCOc1ccc(/C(O)=C2\C(=O)C(=O)N(CCCN(C)C)C23C(=O)N(C)c2ccccc23)cc1 (stereo not given)
→ 4%	·	1%	8%	·	9%	·	6.7%
45. S=C(Nc1ccc(Cl)cc1Cl)N1CCCC1
→ ·	·	·	0%	7%	15%	93%[activator]	·
46. CC1=C(C#N)C(c2ccccc2)C2=C(N1)c1ccccc1C2=O (stereo not given)
→ 4%	?	?	-14%	22%	-9%	?	-7.0%
47. Cc1nc(-c2ccc(Cl)cc2)sc1C1(C)CC(c2cccc([N+](=O)[O-])c2)=NO1 (stereo not given)
→ ·	·	·	0%	-1%	-7%	15%	·
48. CCc1ccc(Nc2n[n+](-c3ccccc3)c(-c3cc(OC)c(OC)cc3Br)s2)cc1
→ ·	·	·	6%	69%	-2%	-3%	·
49. O=C(CCN1C(=O)C2CC=CCC2C1=O)N1CCN(c2ccccn2)CC1 (stereo not given)
→ -9%	-4%	21%	-7%	-10%	1%	-4%	3.5%
50. COc1ccc(CN2CCN(CCCc3ccccc3)C(CCO)C2)c(O)c1 (stereo not given)
→ ·	-5%[46.1 µM]	?	3%	-11%	-15%	-9%	·
51. COc1ccc(CCN2CC(C(=O)NCC(=O)Nc3ccc(F)c(F)c3)CC2=O)cc1OC (stereo not given)
→ ·	7%	-2%	1%	-24%	·	6%	·
52. COC(C(=O)Nc1ccnn1C1CCN(C(=O)c2ccc(C=O)cc2)CC1)c1ccccc1 (stereo not given)
→ ·	?	-10%[46.1 µM]	3%	-1%	13%	13%	·
53. COc1ccc(/C=C(/C#N)C(=O)Nc2cc(C)ccc2C)cc1C(=O)O
→ -4%	?	?	11%	6%	15%	-27%	-2.4%
54. CCC(c1nnnn1C1CCCCC1)N1CCN(C(=O)c2ccco2)CC1 (stereo not given)
→ ·	-8%	-12%[46.1 µM]	0%	9%	-16%	0%	·

Some of the entries so far, screen by screen:
(48) CCc1ccc(Nc2n[n+](-c3ccccc3)c(-c3cc(OC)c(OC)cc3Br)s2)cc1
(49) O=C(CCN1C(=O)C2CC=CCC2C1=O)N1CCN(c2ccccn2)CC1 (stereo not given)
(50) COc1ccc(CN2CCN(CCCc3ccccc3)C(CCO)C2)c(O)c1 (stereo not given)
(51) COc1ccc(CCN2CC(C(=O)NCC(=O)Nc3ccc(F)c(F)c3)CC2=O)cc1OC (stereo not given)

assay / entry	48	49	50	51
Cruzain noTriton	·	-9%	·	·
Lassa entry inh	·	-4%	-5%[46.1 µM]	7%
Marburg entry inh	·	21%	?	-2%
SARS PLpro yeast	6%	-7%	3%	1%
RE007 growth inh	69%	-10%	-11%	-24%
NS1 inh	-2%	1%	-15%	·
2A StopGo	-3%	-4%	-9%	6%
Cruzain inh Det	·	3.5%	·	·
